High-throughput results deposited in PubChem by several laboratories.
Calb FLC = C. albicans growth inhibition with fluconazole, primary screen, CaCi-2 strain, Alamar Blue fluorescence; hit rate 0.57% among 300,000; AID 1979, 2009; growth inhibition, % (concentration not given with the values); C. albicans CaCi-2 (fluconazole-resistant clinical isolate) + fluconazole, 48 h;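 active = most replicates above 75%; inconclusive = exactly half above 75%; inactive = most below 75%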;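 also: all wells also contain fluconazole at 8 µg/ml as a sub-toxic cotreatment; 0% = median of DMSO wells and 100% = median of geldanamycin control wells; wells of about 8 µL received 7.5 nL stock; the first replicate is given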
RanGTP-Impb inh = inhibitors of RanGTP-importin-beta interaction, primary screen, biochemical, FRET, CFP-Ran, YFP-importin-beta, homogeneous | Ran GTPase (GTP-bound) - importin-beta complex | cell-free CFP-Ran/YFP-importin-beta FRET ratio | inhibition, % (test concentration not listed) | hit rate 1.1% among 300,000 | AID 2216, 2009;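 active = most replicates above 15%; inconclusive = exactly half above 15%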;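 also: 0% = DMSO wells and 100% = Ran loaded with GDP instead of GTP; wells of about 40 µL received 100 nL stock; the first replicate is given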
B2AR ag = beta2AR agonists driving receptor internalization, primary screen, cell-based, FAP fluorogen, flow cytometry | Beta-2 adrenergic receptor (Homo sapiens), P07550 | Am2.2-beta2AR cells; reference of the scale not given here | response, % (test concentration not listed) | hit rate 0.43% among 340,000 | AID 504454, 2011;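 active = response above a set limit, near 3 SD of response in nonfluorescent compounds, cut at about 42% in these data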;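 also: stock transfer was 100 nL into about 11 µL; a reference agonist was the positive control; negative values mostly stem from fluorescent compounds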
Target sequence (P07550 whole entry, looked up): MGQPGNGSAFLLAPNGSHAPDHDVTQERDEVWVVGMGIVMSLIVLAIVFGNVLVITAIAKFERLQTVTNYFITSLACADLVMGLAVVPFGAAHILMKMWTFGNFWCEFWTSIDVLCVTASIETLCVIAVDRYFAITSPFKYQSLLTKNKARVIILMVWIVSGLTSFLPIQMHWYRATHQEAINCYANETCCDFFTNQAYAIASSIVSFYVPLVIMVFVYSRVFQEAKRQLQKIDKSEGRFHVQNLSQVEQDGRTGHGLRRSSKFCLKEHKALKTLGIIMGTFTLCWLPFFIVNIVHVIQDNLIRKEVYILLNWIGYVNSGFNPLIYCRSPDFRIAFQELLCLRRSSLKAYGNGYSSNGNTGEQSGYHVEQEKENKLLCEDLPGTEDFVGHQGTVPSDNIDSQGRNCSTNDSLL
HNF4A DNA FP = change in binding of human HNF4A to DNA, primary screen, biochemical, fluorescence polarization, FITC-DNA | Hepatocyte nuclear factor 4-alpha (Homo sapiens), P41235 | 1 h | activity change, % at 10 µM | hit rate 0.3% among 360,000; in the data active = activity change above about 30%, passing the limit was not always enough;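 also: controls were the assay level and a saturating level of protein; the project sought stronger binding though the title names inhibitors; some compounds called inactive have numbers as strong as hits; positive values seem to mean higher polarization but the record does not say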
Target sequence (P41235 whole entry, looked up): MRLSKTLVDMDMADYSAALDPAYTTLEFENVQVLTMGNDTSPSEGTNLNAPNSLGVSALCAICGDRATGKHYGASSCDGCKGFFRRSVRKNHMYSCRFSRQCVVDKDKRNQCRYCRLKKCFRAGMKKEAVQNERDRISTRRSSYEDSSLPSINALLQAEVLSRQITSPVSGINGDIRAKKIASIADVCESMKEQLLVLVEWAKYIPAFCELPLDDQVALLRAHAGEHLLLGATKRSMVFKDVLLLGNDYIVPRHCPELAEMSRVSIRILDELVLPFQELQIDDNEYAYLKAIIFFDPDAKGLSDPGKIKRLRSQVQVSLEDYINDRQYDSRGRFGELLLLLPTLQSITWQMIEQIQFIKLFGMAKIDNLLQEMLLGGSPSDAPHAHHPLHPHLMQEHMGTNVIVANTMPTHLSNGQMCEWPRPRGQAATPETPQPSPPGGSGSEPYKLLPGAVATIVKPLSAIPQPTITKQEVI
ALR inh = inhibitors of human ALR sulfhydryl oxidase, primary screen, biochemical, H2O2 detection, HRP-luminol luminescence, single point; FAD-linked sulfhydryl oxidase ALR (Homo sapiens), P55789; purified ALR, DTT oxidation; inhibition, % (concentration not given with the values); hit rate 3.8% among 290,000; AID 485317, 2010;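 active = mean and each replicate at 75% or more; inconclusive = only one of the two met; inactive = neither met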;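 also: stock transfer was 7.5 nL into about 7.5 µL; 0% = neutral wells and 100% = wells with inactivated enzyme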
Target sequence (P55789 whole entry, looked up): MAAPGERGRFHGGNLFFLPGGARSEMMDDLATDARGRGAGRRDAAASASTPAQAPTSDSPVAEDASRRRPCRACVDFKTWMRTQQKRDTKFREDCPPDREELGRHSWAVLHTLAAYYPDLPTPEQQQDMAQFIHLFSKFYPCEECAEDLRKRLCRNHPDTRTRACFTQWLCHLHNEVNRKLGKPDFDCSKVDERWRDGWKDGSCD
Vif A3G = inhibitors of Vif binding to APOBEC3G peptide, primary screen, biochemical, TR-FRET, GST-Vif 1-94, biotin-A3G peptide, dose response retest (AID 1117319) | TR-FRET GST-Vif / biotin-A3G peptide binding; higher % means a stronger effect; test concentration not given here; strong numbers were not always called active | hit rate 0.57% among 260,000 | inhibition, %, or IC50 in µM where a hit was titrated;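 active = above the screen mean plus three standard deviations and confirmed in dose response; inconclusive = results disagree or hit not tested in dose response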;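 also: Vif residues 1-94 fused to GST binding biotinylated APOBEC3G peptide 110-148; 0% = full assay without inhibitor and 100% = GST in place of GST-Vif; retest series ran down from 100 µM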
LANA-H2B inh = blockers of LANA interaction with H2A/H2B – biochemical, FP readout, HTS, primary screen. Protein LANA1 (Human herpesvirus 8 type P (isolate GK18)), Q9QR71. cell-free LANA-H2A/H2B peptide, fluorescence polarization. inhibition, % (concentration not given with the values). hit rate 0.6% among 320,000; in the data active = inhibition mostly above about 10%, no sharp cut-off; inactive = mostly below about 6.7%;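 also: stock transfer was 7.5 nL into about 10 µL; 0% = median of vehicle wells and 100% = median of positive control wells; one replicate is shown; the record names a cut of 25% in any replicate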
Numbers without * were called inactive; ? = inconclusive; . = no result given.

SMILES	Calb FLC	RanGTP-Impb inh	B2AR ag	HNF4A DNA FP	ALR inh	Vif A3G	LANA-H2B inh
O=C1OCCN1C(=O)[C@H]1[C@H](c2ccc(Cl)cc2)C(c2ccc(F)cc2)=NN1c1ccccc1	.	.	9	3.1	.	4%	.
COc1ccc([C@H]2CC(=O)C=C(c3cccc(F)c3OC)C2)cc1	.	.	6	0.4	-1	.	1.0
Cc1cccc(C(=O)N2CCC(=O)N(C(COCc3cccc(Cl)c3)Cc3ccccc3)CC2)c1 (stereo not given)	11	-1.4	6	1.1	-9	-9%	1.6
CCOC(=O)c1ccc(NC(=O)CCNC(=O)c2ccc([N+](=O)[O-])cc2)cc1	-4	5.5	-13	-5.2	-4	0%	-1.1
COc1cc(OC)c(OC)cc1CNc1cc(C)ccc1OC	6	1.9	-7	-1.5	54	15%	1.7
Oc1ccccc1N=N/C(=N/Nc1ccccc1O)c1ccccc1	-10	-2.2	3	2.7	-2	.	-3.4
O=C(Nc1ccc(Cl)cc1)Nc1ccc(-c2cnco2)cc1	2	3.8	1	1.1	-1	-3%	-6.1
CCc1nnc(NS(=O)(=O)c2ccc(NC(=O)c3cc(Cl)ccc3Cl)cc2)s1	17	-1.9	0	-6.5	1	0%	2.8
COC(=O)C1=C2c3[nH]c4ccccc4c3CCN2C(=O)CC1	-14	3.2	-3	-3.7	-5	.	-3.4
O=C(Nc1ncc2c(n1)-c1ccccc1CC2)c1cccs1	3	-2.4	3	-0.2	-19	-8%	1.1
COc1cc(/C=C/C(=O)O)cc(S(=O)(=O)N2CCc3ccccc3C2)c1OC	6	0.8	1	-3.1	2	-6%	-4.0
CCOC(=O)N1CCC(=NNc2ncc(C(F)(F)F)cc2Cl)CC1	-6	4.0	0	4.8	.	-5%	5.1
CC1CCCCC12NC(=O)N(CC(=O)Nc1ccc(N3CCCCC3)cc1)C2=O (stereo not given)	.	.	1	-1.1	.	-8%	.
O=C(COC(=O)C1CCC1)Nc1ccc(OC(F)F)cc1	.	?	-4	8.5	19	2%	9.1
C=CCNC(=O)c1ccccc1NS(=O)(=O)c1ccccc1	0	4.6	-9	-0.7	-21	-1%	0.3

Reprinted from the entries so far, three compounds:
SMILES	Calb FLC	RanGTP-Impb inh	B2AR ag	HNF4A DNA FP	ALR inh	Vif A3G	LANA-H2B inh
CCOC(=O)N1CCC(=NNc2ncc(C(F)(F)F)cc2Cl)CC1	-6	4.0	0	4.8	.	-5%	5.1
CC1CCCCC12NC(=O)N(CC(=O)Nc1ccc(N3CCCCC3)cc1)C2=O (stereo not given)	.	.	1	-1.1	.	-8%	.
O=C(COC(=O)C1CCC1)Nc1ccc(OC(F)F)cc1	.	?	-4	8.5	19	2%	9.1

The listing continues.
SMILES	Calb FLC	RanGTP-Impb inh	B2AR ag	HNF4A DNA FP	ALR inh	Vif A3G	LANA-H2B inh
Cn1c(=O)n(C)c2cc(/C=N/NC(=S)NCc3ccccc3)ccc21	28	3.9	-4	2.3	7	-5%	-2.6
Cc1sc(N)nc1-c1cccs1	13	2.5	5	-0.6	.	4%	0.4
CC1(C)C(c2cccs2)=[N+]([O-])C2(CCCCC/C2=N\O)N1O (stereo not given)	-3	-0.7	-4	1.7	11	1%	13*
COc1ccc(CCC(=O)Nc2ccc3c(c2)OCO3)cc1OC	-30	0.3	-2	2.6	.	-2%	-6.3
COc1ccccc1N1CCN(Cc2nnnn2CCc2ccccc2)CC1	-3	-3.8	5	3.6	37	4%	-0.1
COc1ccccc1C(=O)NCC(c1ccco1)N1CCc2ccccc21 (stereo not given)	32	-0.5	1	-1.5	.	-3%	5.3
Cc1ccccc1OCc1nnc2c3cnn(C)c3ncn12	5	1.8	-7	2.0	1	-2%	-1.7
Cc1ccc2c(c1)NC(=O)C(CC(=O)NCc1cccnc1)O2 (stereo not given)	-1	0.6	-4	4.1	5	0%	6.3
CCOC(=O)CCC(=O)Nc1ccc(S(=O)(=O)N2CCCC2)cc1	18	2.8	-3	3.5	0	-14%	1.5
CCOc1ccc(S(=O)(=O)N(CC(=O)NCC2CCCO2)c2ccc(F)cc2)cc1 (stereo not given)	31	?	-5	5.7	-4	.	2.2
Cn1c(N)c(C(=O)c2cc(-c3ccncc3)nc3ccccc23)c(=O)n(C)c1=O	5	?	3	-5.5	-4	-6%	0.6
CCOc1cc2nc(-c3ccc(OC)c(OC)c3)nc(N3CC(C)OC(C)C3)c2cc1OC (stereo not given)	-3	-1.5	.	.	0	29%	7.2
Nc1ccc(C(O)(C(F)(F)F)C(F)(F)F)cc1	?	5.9	5	-3.7	-42	7%	2.7
CCOC(=O)N1CCN(S(=O)(=O)c2ccc3c(c2)OCC(=O)N3)CC1	4	5.5	24	0.6	-11	1%	2.6
CCOc1ccc(S(=O)(=O)NCc2cccnc2)cc1C(C)C	16	1.0	.	1.9	.	.	3.6
CN(C)C1=NC[C@H](Cc2ccccc2)N1CCCC1CCCCC1	.	.	31	-2.3	-39	.	3.6
Cc1cccc(NC(=O)Cn2c(=O)n(Cc3ccccc3)c(=O)c3c(C)c(C)sc32)c1	-7	-0.1	-20	3.4	-4	-1%	-0.3
CCOc1ccc(OCC)c(S(=O)(=O)NCCCN2CCOCC2)c1	-10	-4.4	-1	-2.6	-12	1%	1.7
O=S1(=O)NC(C2CC2c2ccccc2)CCO1 (stereo not given)	-2	0.1	0	-0.5	-2	.	-3.0
O=C(C(=O)N1CCCc2ccccc21)c1cn(CC(=O)N2CCOCC2)c2ccccc12	5	.	0	-1.3	-19	4%	-1.7
Cc1oc(C)c2c(=O)ccc3c(c12)OC(N)=C(C#N)C3c1ccccc1Cl (stereo not given)	0	28*	-273	8.2	1	?	-1.8
CCCCC(=O)NC(NC(=S)N1CCCCCC1)C(Cl)(Cl)Cl (stereo not given)	-80	?	-3	-2.0	-5	4%	2.2
Cc1ccccc1CN1CCN(C(C)C(=O)NCc2ccccc2)CC1 (stereo not given)	-6	-1.2	1	2.6	-1	.	-2.7
CS(=O)(=O)c1[nH]nc(-c2cccc(Cl)c2)c1C#N	2	-0.9	16	6.7	-2	.	1.6
N#CN1CCC(NS(=O)(=O)c2ccc(C(F)(F)F)cc2)C1 (stereo not given)	.	.	-10	5.2	-3	.	1.9
CC1CCN(c2ccccc2NC(=S)NC(=O)c2cccs2)CC1	40	-3.5	-1	-0.4	2	-1%	0.7
Cc1nn(C)cc1-c1n[nH]c(=S)n1-c1ccc(Cl)cc1	-9	1.9	-6	4.8	-1	3%	-1.2
COC(=O)c1cc(C(=O)OCC(=O)N(C)C2CCS(=O)(=O)C2)cc([N+](=O)[O-])c1 (stereo not given)	-6	3.8	3	-1.6	-11	-15%	-0.3
C=CCNc1nc2c(c(=O)[nH]c(=O)n2C)n1CCCc1ccccc1	-4	-1.1	5	-4.1	8	24%	0.0
C/C(=N\Nc1ccc2nncn2n1)c1ccc(Br)s1	-7	0.7	0	-0.3	.	78%	1.7
CCCCOC(=O)Cn1c(=N)n(CCN2CCOCC2)c2ccccc21	-6	1.6	-1	0.0	-8	0%	3.0
COC(=O)CSc1[nH]c2cc(C)ccc2c1[N+](=O)[O-]	-1	-0.1	8	1.3	.	6%	-1.1
CCCc1nc2oc3c(NCC4CCCO4)ncnc3c2c2c1COC(C)(C)C2 (stereo not given)	8	3.2	-6	0.3	-5	-5%	2.2
O=C(N/N=C/c1ccc(Br)s1)c1ccco1	2	0.1	-5	-2.3	1	1%	2.2
Cc1cccc(OCC(=O)NCC(=O)N/N=C/c2ccc([N+](=O)[O-])cc2)c1	-1	-4.0	-1	-1.2	-21	-6%	-2.7
O=C(OCC(=O)N1CCCC1)c1cccs1	12	-1.9	0	0.3	2	10%	3.9
O=C(CCCCn1c(=O)[nH]c2ccccc2c1=O)NCc1ccc2c(c1)OCO2	8	-5.2	-11	2.5	-2	0%	3.2
CCc1sc(N2C(=O)C3C4CCC(C4=C(C)C)C3C2=O)nc1-c1ccccc1 (stereo not given)	13	6.2	10	-15	-3	0%	-8.8
O=C(NNC(=O)c1cccnc1SCc1cccc([N+](=O)[O-])c1)c1cccnc1	11	-2.1	1	-4.9	10	.	0.2
CCOC(=O)C(=O)NC1CC=CCC1c1ccc2c(c1)OCO2 (stereo not given)	.	.	5	0.9	.	-2%	.
CCOc1ccccc1-n1nnnc1SCC(=O)NCc1ccco1	21	6.9	2	0.1	.	10%	-1.0
CCOC(=O)C(CSCC(=O)c1ccc(Br)cc1)NC(=O)OC(C)(C)C (stereo not given)	-4	8.5	.	.	99*	-2%	3.2
CCN(CC)CCCOC(=O)C(c1ccccc1)c1ccccc1	-9	-0.5	-2	2.7	-16	?	5.8
C[C@@]12C(=O)N(c3ccc(Cl)cc3)C(=O)N1[C@@H]1c3ccccc3OC[C@@H]1[C@H]2c1ccccc1	.	.	-6	-5.2	-2	.	4.0
C/C(CC(=O)Nc1ccc(Cl)cc1C(F)(F)F)=N\NC(N)=S	4	0.6	8	-3.0	.	.	-2.9
O=C1C2C3CCC(CC3)C2C(=O)N1c1ccccc1 (stereo not given)	2	0.3	-1	-0.6	.	4%	1.9
O=C(COC(=O)c1cc[n+]([O-])cc1)Nc1ccc(Cl)cc1[N+](=O)[O-]	-2	-0.5	-6	1.2	-54	2%	0.1
O=S(=O)(Nc1ccc(-c2cn3ccccc3n2)cc1)c1ccccc1	-2	2.3	-8	1.0	12	-7%	2.2
CCCCOc1ccc(CNC(=S)N/N=C/c2ccc(OC)c(OC)c2)cc1	1	-1.1	-5	0.8	-1	-5%	2.7
O=C(C1CCC(C(=O)N2CCCCC2)CC1)N1CCCCC1 (stereo not given)	1	-1.1	4	-4.4	0	3%	2.3
O=C(N[C@@H](Cc1ccc(O)cc1)C(=O)O)c1cccnc1	28	1.5	-6	5.0	-2	20%	-7.2
C/C(=N\NC(=O)c1ccc(Br)cc1)c1ccccc1	-4	4.4	-4	1.4	18	0%	-15
CC(=O)NCCC(=O)N1CCCC(C(=O)c2ccc3c4c(cccc24)CC3)C1 (stereo not given)	-3	-3.0	9	4.4	-9	29%	1.0
CSCC(=O)N1CCC(n2nccc2NC(=O)c2ccc3c(c2)OCO3)CC1	-6	-0.2	1	2.0	-4	.	3.2
COc1ccc(C(=O)N2CCn3c(C)ccc3C2C)cc1 (stereo not given)	-10	8.3	6	10.0	.	-13%	0.9
O=C(NCCc1ccccn1)c1ccc(NS(=O)(=O)c2ccc(F)cc2)cc1	1	-6.1	6	4.0	2	-5%	-0.4
CCC(CC)CN1C(Nc2ccccc2)=NC[C@@H]1CC(C)C	-12	-0.1	1	5.0	-1	.	1.1
COc1ccc(CCNC(=O)c2cc(-c3ccc(Cl)c(Cl)c3)oc2C)cc1	-3	-1.5	2	3.9	35	.	1.4
O=C(C1CCCCC1)N1CCC(n2nnc3ccccc32)CC1	5	4.0	-5	-0.2	1	11%	0.5
COc1ccc(CNC(=O)c2cc(-c3cc(C)ccc3O)n[nH]2)cc1	10	-2.7	15	1.7	3	.	4.9
COc1ccc(-n2cc(C#N)c(=O)[nH]c2=O)cc1	14	-1.9	5	-0.7	-5	-15%	8.1
CNC(=O)CC(C(=O)O)c1ccc(OCC(C)C)cc1 (stereo not given)	4	1.2	-4	-4.0	.	4%	.
C=CCN1C(=O)C(C)NC1=S (stereo not given)	-1	-0.7	1	1.5	.	3%	.
